# Screens as filed in PubChem.
# PINK1 modulator – changes PINK1 expression; AID 624263; PINK1 immunofluorescence, high-content cytometry, 24 h; 410,000 tested, 0.2% active; Potency, µM (titrated, usually from 76.6 µM), for inactives: top-dose activation (PINK1 increase), actives largely listed as activators; active = well fitted activation curve with a large enough effect; inconclusive = small, poorly fitted or top-dose-only effect; inactive = flat fitted curve, though single readings scatter; cell line not stated here;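 note: potency is the fitted concentration of half-maximal effect; % of control where 0% means no effect; nearly all actives have a fitted effect of over 65% in size; a mitochondrial uncoupler was the plate control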
#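 Stable cell line, 250 cells/well, 12 h attachment; compounds pinned at 5 concentrations, 24 h; CCCP control. Fixed with nuclear dye, primary antibodies 12 h at 10 degrees C, secondary plus cell stain; laser-scanning cytometer read.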
# D2 agonist – activates the human D2 dopamine receptor; activation, % (no concentration beside the values); 360,000 tested, 0.084% active; P14416; DiscoveRx PathHunter D2 beta-arrestin, luminescence, 90 min; 100% = 57 uM dopamine signal; in the data active = activation above about 40%; inconclusive = about 15% to 40%; inactive = below about 15%; note: compound concentration not given in the record; the text of the record calls up to 30% inactive
#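 DiscoveRx PathHunter D2 beta-arrestin cells (2,100/well) attached overnight, then compound-stimulated 90 min at 37 C in HBSS/10 mM HEPES/0.1% Tween-20 buffer; beta-galactosidase complementation read by luminescence after 1 h at ambient temperature. Dopamine 57 uM final (EC100) as control.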
# D2 PAM – positive allosteric modulators of human D2 dopamine receptor; P14416; DiscoveRx D2 beta-arrestin cells, luminescence, 90 min; 100% = 57 uM dopamine signal; potentiation, % (no concentration beside the values); 360,000 tested, 0.23% active; AID 624464; active = potentiation of 50% or more; inconclusive = 30% to 50%; inactive = 30% or less;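 note: compound concentration not given in the record; tested on top of an EC20 dose of dopamine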
#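 PathHunter beta-arrestin assay in DiscoveRx D2 cells. Compounds were added with an EC20 of dopamine (50 nM final) for 90 min at 37 deg C. Luminescence was read 1 h after detection reagent, with 57 uM dopamine as the EC100 control.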
# Six1-Eya2 blk – inhibitors of human Six1/Eya2 interaction; AID 651725; activity change, % (no concentration beside the values); 360,000 tested, 0.56% active; AlphaScreen GST-Six1/His-Eya2 binding, biochemical; stronger effect = lower value; control for the full effect not named in the record; in the data active = activity change below about -65%; inconclusive = about -30% to -65%; inactive = above about -30%; note: % is set by controls: 0 for no effect and ±100 for the full control effect; compound concentration not given in the record
# Target sequence (O00167 whole entry, looked up): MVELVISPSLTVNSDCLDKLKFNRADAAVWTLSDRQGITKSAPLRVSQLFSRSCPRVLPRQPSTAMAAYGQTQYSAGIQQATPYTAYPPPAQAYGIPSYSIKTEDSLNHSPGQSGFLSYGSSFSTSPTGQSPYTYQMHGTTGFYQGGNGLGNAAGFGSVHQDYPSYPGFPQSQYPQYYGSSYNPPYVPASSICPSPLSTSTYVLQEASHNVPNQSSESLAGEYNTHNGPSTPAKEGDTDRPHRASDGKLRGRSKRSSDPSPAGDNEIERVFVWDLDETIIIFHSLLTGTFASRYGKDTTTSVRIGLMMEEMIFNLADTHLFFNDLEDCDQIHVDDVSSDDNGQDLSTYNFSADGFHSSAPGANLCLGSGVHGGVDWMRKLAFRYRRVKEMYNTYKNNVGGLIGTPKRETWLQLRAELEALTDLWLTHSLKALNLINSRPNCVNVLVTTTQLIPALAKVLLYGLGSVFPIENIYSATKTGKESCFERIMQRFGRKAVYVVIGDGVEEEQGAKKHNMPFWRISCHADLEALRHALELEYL
# Target sequence (Q15475 whole entry, looked up): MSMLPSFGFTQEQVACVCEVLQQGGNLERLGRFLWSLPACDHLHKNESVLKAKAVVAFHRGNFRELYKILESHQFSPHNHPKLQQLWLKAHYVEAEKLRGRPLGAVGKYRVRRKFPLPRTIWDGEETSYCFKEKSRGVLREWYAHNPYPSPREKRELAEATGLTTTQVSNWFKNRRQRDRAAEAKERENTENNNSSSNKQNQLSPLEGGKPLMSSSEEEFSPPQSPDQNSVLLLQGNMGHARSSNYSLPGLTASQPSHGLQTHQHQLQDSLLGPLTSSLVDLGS
#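 AlphaScreen with GST-Six1 and His-Eya2 (5X mix: 250 nM and 500 nM), glutathione donor and nickel acceptor beads; buffer 50 mM Tris pH 8.0, 300 mM NaCl, 1 mM TCEP; 1 h at 37 C in the dark.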
# CtBP-E1A inh – CtBP/E1A binding inhibition; activity change, % (concentration not given with the values); AlphaScreen GST-E1A/His-CtBP binding, 1536-well; stronger effect = lower value; control for the full effect not named in the record; AID 651724; 340,000 tested, 0.49% active; in the data active means activity change below about -65%; inconclusive means about -30% to -65%; inactive means above about -30%; note: % is set by controls: 0 for no effect and ±100 for the full control effect
#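 Protein mix (5X: 125 nM each GST-E1A, His-CtBP) was incubated with pinned compound 2 h at 37 deg C in dark, in 50 mM Tris pH 8.0 buffer with 300 mM NaCl. Glutathione donor and nickel acceptor beads followed; AlphaScreen signal read after 1 h.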
# TRPML1 agonist – human mucolipin-1 channel agonism; activation, % (test concentration not listed); AID 624414; TRPML1-expressing cells, Ca2+ dye fluorescence, FDSS; host cell line not named in the record; reference of the full effect not given here; 410,000 tested, 0.12% active; in the data active = activation above about 50%; inconclusive = about 30% to 50%; inactive = below about 30%; note: 0% is about no effect; the text of the record puts the active cut at 80%
#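 Cells: TRPML1-DL, 1X Tet inducer, ~16 h at 37 degrees C/5% CO2. Dye: ABD Ca8 no-wash + quencher, 45-90 min RT. Read: 10 s baseline, compound add, 110 s agonist phase; 54-4 EC80 (4uM final), 110 s antagonist phase.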
# The depositor's hits bear a star; ? = inconclusive; / = no result given; [ ] = another dose, or the depositor's remark.
molecule | PINK1 modulator | D2 agonist | D2 PAM | Six1-Eya2 blk | CtBP-E1A inh | TRPML1 agonist
Cc1ccc(C)c(NC(=O)CN(C)C(=O)c2cc3c(s2)CCCCC3)c1 | 0.4% | 2.9 | -1 | 8 | 11 | 3.2
COc1ccc(C(=O)Nc2c(Cl)cc(Cl)cc2C(=O)N2CCOCC2)cc1 | 1.4% | -2.0 | 0 | 4 | 12 | 0.2
COc1ccc2nc(SCC(=O)NN)cc(C)c2c1 | / | -1.2 | -6 | 4 | 4 | -0.3
CC(=O)C1=C(O)C(=O)N(CCC(=O)O)C1c1ccc(Cl)cc1Cl (configuration not stated) | / | 0.6 | 10 | 6 | 6 | 0.5
CC(=O)c1ccc(OCc2cc(C(=O)NCCN3CCCC(O)C3)no2)cc1 (configuration not stated) | -0.5% | 1.0 | -4 | 4 | / | -0.8
CCOC(=O)C1(Cc2ccccc2)CCCN(Cc2ccc(OCC)c(CO)c2)C1 (configuration not stated) | -0.2% | -1.7 | -7 | 6 | 4 | 0.5
Cc1noc(C)c1S(=O)(=O)Nc1ccc(C(=O)N2CCN(c3cccc(Cl)c3)CC2)cc1 | 5.8%[38.3 µM] | 1.4 | -23 | -3 | -4 | 0.0
C/C(CC(=O)Nc1cc(C)ccn1)=N\NC(=O)c1ccc(C)cc1 | 1.8% | -6.4 | -7 | -9 | 4 | 0.6
CN(c1ccccc1)S(=O)(=O)c1ccc(C(=O)Nc2ncccc2O)cc1 | 6.2% | -1.3 | -4 | -5 | -3 | 0.3
CC(CCc1ccccc1)NC(=O)CN1C(=O)NC2(CCCCC2C)C1=O (configuration not stated) | 1.6% | -0.1 | -15 | -1 | / | -1.4
Cc1c(C)c2c(OCC(=O)N[C@@H](C(=O)O)c3ccccc3)cc3c(c2oc1=O)CCC(C)(C)O3 | 0.0% | -4.9 | -32 | -20 | -15 | /
O=C1CCCCCN1CP(=O)(O)CN1CCCCCC1=O | 0.1% | 1.2 | -11 | 6 | 9 | 0.0
Cc1ccc(S(=O)(=O)c2nc(-c3ccco3)oc2SCC(N)=O)cc1 | 1.1% | -0.8 | -2 | -13 | -2 | -0.1
Cn1c(SCC(=O)NC2CC2)nnc1C1CC1 | -0.2% | -5.6 | 0 | 1 | 4 | -0.6
CN1N=C(C(=O)N2CCc3c([nH]c4ccccc34)C2c2ccccc2Cl)CCC1=O (configuration not stated) | 3.9% | -1.5 | -3 | 0 | 1 | -0.3
CCOC(=O)C(=O)N1CCN(c2nc(-c3ccc(Cl)cc3)cs2)CC1 | 1.4% | 1.6 | -5 | -14 | -12 | -0.2
C=CCN1C(=O)/C(=C2/Sc3ccccc3N2C)SC1=Nc1c(C)n[nH]c1C | 3.7% | 4.0 | 2 | -16 | -10 | 2.9
CN(CC(=O)Nc1ccccc1Br)C(=O)CNC(=O)c1cccs1 | 3.0% | -5.2 | -8 | 4 | / | -0.6
COCCCNCCCCOc1ccc(OCc2ccccc2)cc1 | 5.6% | 1.0 | -13 | -2 | / | 1.0
COc1cc(NC(=O)c2ccc(Cl)cc2)c(OC)cc1Cl | 1.1%[38.3 µM] | -6.1 | -8 | 6 | 7 | 1.6
CN1CCN(CCC(=O)Nc2ccc3c(c2)OCO3)CC1 | -1.6% | -1.6 | -9 | 3 | 0 | 1.2
Cc1c(NC(=S)N/N=C/c2ccc(O)cc2)c(=O)n(-c2ccccc2)n1C | 6.0%[38.3 µM] | -2.6 | 7 | 2 | 2 | 3.4
CCCn1c(N)c(N(CCOC)C(=O)/C=C/c2ccc(C(=O)OC)cc2)c(=O)[nH]c1=O | -0.5% | 0.8 | -11 | 26 | 0 | 0.8
CCOC(=O)c1ccc2c(c1)N(CC)C(=O)c1ccccc1S2 | 2.5% | -5.3 | -12 | 9 | / | 2.7
Cc1ccc2c(c1)N(CC(=O)N1CCN(c3nc4ccccc4s3)CC1)C(=O)C(C)O2 (configuration not stated) | 7.4%[38.3 µM] | -4.4 | -6 | -8 | -8 | 1.3
Cc1ccc(CNC(=O)Nc2ccccc2)c(C)c1 | -0.4% | -3.2 | -9 | 1 | -1 | 0.3
c1ccc(CSc2nnnn2-c2cccc3ccccc23)nc1 | -1.9% | -3.5 | -19 | -5 | -1 | 1.3
CCOc1cc(C)cc2oc(=O)cc(-c3ccccc3)c12 | 1.1%[38.3 µM] | 0.0 | -14 | 8 | 16 | 0.3
CC(C)CC1CC(=O)OC1(C)C(=O)CSc1nc2ccccc2s1 (configuration not stated) | -1.5% | -0.8 | 7 | 20 | 6 | 0.8
COc1ccccc1N1CCN(C/C(O)=C(\C#N)c2nc(-c3ccccc3)cs2)CC1 | 1.3%[38.3 µM] | -1.0 | -16 | -14 | -18 | -0.4

# Later entries:
molecule | PINK1 modulator | D2 agonist | D2 PAM | Six1-Eya2 blk | CtBP-E1A inh | TRPML1 agonist
CC12CCC(=O)C=C1CCC1C3CC(O)C(O)(C(=O)CO)C3(C)CC(O)C12F (configuration not stated) | 2.9% | 5.7 | 8 | 1 | 3 | 0.5
CCOP(=O)(OCC)C(NC(=O)Nc1ccc(Cl)cc1)C(=O)N(CC)CC (configuration not stated) | 0.7% | -2.8 | -10 | 14 | / | 0.3
COc1ccc(CCNC(=O)C(=O)N2CCCCC2)cc1OC | 1.9% | -4.9 | -15 | 0 | 3 | -0.6
CCC1=NN2C(=N)/C(=C\c3ccc(OCCOc4ccccc4OC)cc3)C(=O)N=C2S1 | 0.3% | 4.9 | -4 | -8 | -1 | 0.7
O=C(COC(=O)CCCC1=NS(=O)(=O)c2ccccc2N1)Nc1ccccc1 | 2.7% | -5.5 | -19 | 1 | 2 | -0.2
O=C1c2ccccc2C(c2nnnn2Cc2ccccc2)N1CCCN1CCOCC1 (configuration not stated) | 0.5% | / | / | 25 | 9 | -0.2
CC(=O)c1cccc(NC(=S)N2CCN(S(=O)(=O)c3ccccc3)CC2)c1 | -1.2% | -0.9 | -14 | -22 | 9 | 0.3
COc1ccccc1NC(=O)C(C)Sc1nc2ccccc2c(=O)n1CC1CCCO1 (configuration not stated) | 2.7% | -4.2 | -14 | 1 | 0 | 0.0
CCn1c2ccc(F)cc2c2nnc(SCCN3CCOCC3)nc21 | -0.5% | -0.7 | 0 | -23 | / | 1.0
CC(C)CC(NC(=O)c1ccc(Cl)cc1)C(=O)O (configuration not stated) | -0.9% | 0.2 | -7 | 8 | -4 | 1.5
O=C(NCC(=O)N(Cc1ccco1)C(C(=O)NC1CCCCC1)c1cccnc1)c1cccs1 (configuration not stated) | 1.6% | -1.4 | -15 | -1 | -1 | -0.4
COC(=O)N1CC(c2ccccc2)CC1=O (configuration not stated) | -1.5%[38.3 µM] | -0.9 | -3 | -1 | 8 | 0.0
COC(=O)c1ccccc1NS(=O)(=O)c1ccc2[nH]c(=O)[nH]c2c1 | 13% | 2.4 | 12 | 1 | 6 | 0.6
CC(CNC(=O)CN1C(=O)NC2(CCOc3ccccc32)C1=O)c1ccccc1 (configuration not stated) | 0.1% | -0.2 | 0 | 2 | 5 | -0.3
O=C(Cn1cc(C(F)(F)F)ccc1=O)Nc1ccccc1 | 2.9% | -2.4 | -2 | 1 | 6 | 1.0
c1ccc2sc(N3CCN(Cc4nnnn4CC4CCCO4)CC3)nc2c1 (configuration not stated) | 28%[38.3 µM] | -1.3 | -4 | 0 | 5 | -0.2
CCOc1ccccc1NC(=O)/C(C#N)=C/c1c(C)nn(-c2ccc(F)cc2)c1Cl | 12% | 4.3 | 0 | -3 | -20 | 0.6
Cc1ccc(C(=O)NCCc2c[nH]c3ccccc23)s1 | -0.5% | -1.5 | -5 | -15 | 0 | 1.0
O=C(NC(=S)Nc1cccc(F)c1)c1cccc([N+](=O)[O-])c1 | 2.2% | -5.8 | -46 | -4 | / | 0.0
O=[N+]([O-])c1cccc(S(=O)(=O)N2CCc3ccccc3C2)c1 | 9.2% | ? | 3 | 0 | / | -1.3
COc1ccc(CCNC(=O)c2c(C)noc2C)cc1 | -1.2%[38.3 µM] | -0.1 | -9 | 7 | 4 | 0.2
CCCCCCCCc1nc(SC(C)C(=O)O)n[nH]1 (configuration not stated) | 0.3% | 0.0 | -1 | 9 | 6 | -0.5
